KCNQ2 pot = potentiators of rat KCNQ2 potassium channel; 0.54% of 310,000 active; B-score at 10 µM; CHO-K1 KCNQ2, FluxOR thallium flux fluorescence; active compounds read high; Potassium voltage-gated channel subfamily KQT member 2 (Rattus norvegicus), O88943;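 active = fluorescence ratio B-score at least 3 SD of library B-scores, with initial fluorescence B-score within 3 SD, cut at about 5.3 in these data; same plate scores as AID 2156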;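 note: B-score of peak minus minimum over baseline fluorescence ratio after K+ and Tl+ stimulus; positive B-score means potentiation of KCNQ2 with more thallium influx and brighter signal; only the inactives scoring about 0 or higher are listed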
Target sequence (O88943 whole entry, looked up): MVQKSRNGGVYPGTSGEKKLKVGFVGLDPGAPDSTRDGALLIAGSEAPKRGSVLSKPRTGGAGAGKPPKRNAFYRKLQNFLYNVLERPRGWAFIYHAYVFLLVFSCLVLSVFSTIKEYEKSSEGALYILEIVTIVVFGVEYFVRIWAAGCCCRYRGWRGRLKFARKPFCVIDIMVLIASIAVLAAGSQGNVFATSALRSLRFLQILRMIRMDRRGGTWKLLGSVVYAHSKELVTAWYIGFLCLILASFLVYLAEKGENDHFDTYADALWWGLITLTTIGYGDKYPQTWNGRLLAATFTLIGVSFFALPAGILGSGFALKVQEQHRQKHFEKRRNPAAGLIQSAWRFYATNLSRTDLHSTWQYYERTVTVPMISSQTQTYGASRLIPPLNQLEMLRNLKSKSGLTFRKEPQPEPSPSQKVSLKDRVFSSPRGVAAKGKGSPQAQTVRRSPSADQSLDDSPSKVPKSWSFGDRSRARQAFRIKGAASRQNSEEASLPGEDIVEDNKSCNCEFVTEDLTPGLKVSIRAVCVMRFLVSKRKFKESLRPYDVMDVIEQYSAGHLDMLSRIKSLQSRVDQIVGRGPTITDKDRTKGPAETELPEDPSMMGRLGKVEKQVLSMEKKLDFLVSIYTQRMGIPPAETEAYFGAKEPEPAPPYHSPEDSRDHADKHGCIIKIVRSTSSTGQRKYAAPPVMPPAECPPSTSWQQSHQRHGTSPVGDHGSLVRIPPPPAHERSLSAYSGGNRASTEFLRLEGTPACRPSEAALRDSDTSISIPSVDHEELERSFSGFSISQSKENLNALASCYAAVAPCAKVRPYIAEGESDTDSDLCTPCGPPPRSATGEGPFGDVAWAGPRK
KCNQ2 pot baseline = also measured in KCNQ2 pot; calls as there; B-score; compound at 10 µM; measured here: initial fluorescence intensity artifact check;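 brightness before thallium and not channel activity; 0 = typical well and far values either way flag optical interference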
An asterisk follows results filed as active. Only part of the results is shown; the hit share may differ from the screen's.

A first look, 4 compounds:
SMILES	KCNQ2 pot	KCNQ2 pot baseline
COc1ccc(NC(=S)NC(=O)c2ccccc2Cl)cc1	0.44	-0.16
N#Cc1c(-c2ccccc2)nc(SCc2ccc([N+](=O)[O-])cc2)[nH]c1=O	2.94	-0.83
COC(=O)[C@@H]1CCCN1C(=O)CCc1nnc(CCC2CCCCC2)o1	0.71	-0.84
CC1CCCC(NC(=O)CC2Nc3ccccc3NC2=O)C1C (configuration not stated)	1.35	0.08

The listing, from the first entry:
SMILES	KCNQ2 pot	KCNQ2 pot baseline
COc1ccc(NC(=S)NC(=O)c2ccccc2Cl)cc1	0.44	-0.16
N#Cc1c(-c2ccccc2)nc(SCc2ccc([N+](=O)[O-])cc2)[nH]c1=O	2.94	-0.83
COC(=O)[C@@H]1CCCN1C(=O)CCc1nnc(CCC2CCCCC2)o1	0.71	-0.84
CC1CCCC(NC(=O)CC2Nc3ccccc3NC2=O)C1C (configuration not stated)	1.35	0.08
Cc1c(C(=O)NCCSCc2ccccc2)cccc1[N+](=O)[O-]	0.66	-0.87
CC(C)c1nnc(NC(=O)CCC2CCCCC2)s1	2.11	0.44
O=C(CC1(c2ccc(Cl)cc2)C2CC3CC(C2)CC1C3)NCCO (configuration not stated)	5.37*	0.56*
Cc1cc(C(=O)c2cccs2)c(N)s1	0.8	-3.22
O=C(C1CCC(CNc2c(N3CCCCC3)c(=O)c2=O)CC1)N1CCCCC1 (configuration not stated)	1.38	0.43
COCCN1CCN(C(=O)C2CCC(=O)N(Cc3cccc(C(F)(F)F)c3)C2)CC1 (configuration not stated)	1.19	1.34
COc1nc(NCc2ccco2)nc(N2CCC(C)CC2)n1	0.02	0.04
COc1ccc(-c2nnc(N3CCC(C)CC3)c3ccccc23)cc1	1.19	-0.97
O=S1(=O)N=C(Nc2nncs2)c2ccccc21	0.29	0.02
CC1(C)Cc2noc(N)c2C(C)(C)N1OC(=O)c1cccs1	0.73	0.33
Cc1[nH]c2ccc(OC(=O)N3CCOCC3)cc2c1C(=O)OC(C)C	0.68	0.69

Looked up above.
KCNQ2 pot baseline, `COc1ccc(-c2nnc(N3CCC(C)CC3)c3ccccc23)cc1` is entered as -0.97
KCNQ2 pot, `COc1nc(NCc2ccco2)nc(N2CCC(C)CC2)n1` is entered as 0.02
KCNQ2 pot baseline, `O=C(C1CCC(CNc2c(N3CCCCC3)c(=O)c2=O)CC1)N1CCCCC1` (configuration not stated) is entered as 0.43
KCNQ2 pot baseline, `COC(=O)[C@@H]1CCCN1C(=O)CCc1nnc(CCC2CCCCC2)o1` is entered as -0.84
KCNQ2 pot baseline, `COCCN1CCN(C(=O)C2CCC(=O)N(Cc3cccc(C(F)(F)F)c3)C2)CC1` (configuration not stated) is entered as 1.34
KCNQ2 pot, `CC1CCCC(NC(=O)CC2Nc3ccccc3NC2=O)C1C` (configuration not stated) is entered as 1.35

Later entries.
SMILES	KCNQ2 pot	KCNQ2 pot baseline
CSc1ccc(S(=O)(=O)NCC(=O)OCCOc2ccccc2)cc1[N+](=O)[O-]	1.76	-1.39
CCC(C)NC(=O)C1CCN(c2nc(OC)nc(OC)n2)CC1 (configuration not stated)	1.93	0.2
CC(CC(=O)N1CCN(c2ccc(C(F)(F)F)cn2)CC1)n1ccnc1 (configuration not stated)	0.08	2.63
CN1CC(=O)NC1=NC(=O)c1ccc(Cl)c(S(=O)(=O)N2CCCCCC2)c1	0.29	0.33
Cc1ccc(S(=O)Cc2ccc(C(=O)N3CCN(C(=O)c4ccco4)CC3)o2)cc1 (configuration not stated)	0.51	0.45
CCOC(=O)C1=C(c2ccccc2)OC(N)=C(C#N)C1c1ccco1 (configuration not stated)	0.44	0.81
O=C(COC(=O)CCN1C(=O)C2CC=CCC2C1=O)NCCc1ccccc1 (configuration not stated)	0.65	1.47
O=C1C(=O)N(c2ccc(O)cc2)C(c2ccccc2[N+](=O)[O-])/C1=C(\O)c1ccccc1 (configuration not stated)	0.18	-0.5
Cc1cccc(CSc2nnc(-c3ccco3)n2C)c1	0.33	0.72
Cc1nnc(SCC(=O)Nc2ccc(N3CCOCC3)cc2)n1-c1ccccc1	0.83	1.39
O=C1Nc2ccccc2C(=O)N2[C@H](c3ccc(F)cc3)[C@@H]3C(=O)N(Cc4ccccc4)C(=O)[C@@H]3[C@H]12	0.38	1.18
O=S(=O)(c1ccc(Cl)cc1)c1nc(-c2ccco2)oc1N1CCOCC1	0.67	-0.98
CCOC(=O)c1cc(C)n(-c2ccc(OC)c(OC)c2)c1C	0.22	0.69
CCN=C1SC(CC(=O)Nc2ccccc2OCC)C(=O)N1CC (configuration not stated)	0.7	3.16
COc1ccc(C(=O)Nc2cc(C(F)(F)F)ccc2Cl)cc1OC	0.08	-0.82
CC1CCCCC1NCc1cccc([N+](=O)[O-])c1 (configuration not stated)	0.64	0.36
O=C(Nc1cccc(C(=O)O)c1)/C(=C\c1ccccc1)NC(=O)c1ccccc1	0.11	-1.26
COC(=O)c1ccc(-c2ccco2)n1Cc1ccccc1Cl	1.58	2.74
Cc1cc(C)n(C(C)n2nc(C)cc2C)n1	0.37	1.38
COc1ccc(C(=O)Nc2ccc(N3CCN(C(=O)c4ccccc4)CC3)cc2)cc1[N+](=O)[O-]	0.19	-0.05
COc1ccc(OCCCC(=O)N(C)CC(=O)Nc2ccccc2Cl)cc1	0.36	0.37
CC1=CC(C)(C)NC(=S)N1NC(=O)c1ccccc1Cl	0.03	0.06
CC(C)CC(=O)Nc1ccc2ccccc2c1	1.37	0.31
CCC1C(=O)NCCN1C(=O)CCc1nnc(CCc2ccc(OC)cc2)o1 (configuration not stated)	1.26	0.61
CC1CCC(NC(=O)CCS(=O)(=O)c2ccc3c(c2)NC(=O)CS3)CC1 (configuration not stated)	0.38	-0.08
Cc1ccc(N2CN=C(c3ccccc3)NC2=S)cc1	0.66	0.54
O=C(NCCS(=O)(=O)NCc1ccccc1)c1ccccc1	0.28	0.29
COC(=O)CCc1ccc(O)cc1	0.49	0.96
CCc1ccc(/C=C/C(=O)c2ccc(S(=O)(=O)N(C)C)cc2)cc1	4.84	-3.16
O=C(CN1CCN(S(=O)(=O)c2ccc(Br)cc2)CC1)N/N=C/c1cccnc1	0.01	-1.12
COc1ccccc1N(CC(=O)NC1CCCC1)C(=O)c1csnn1	0.24	0.03
O=c1[nH]nc(-c2ccc(F)cc2)cc1Cc1cccs1	0.32	1.33
Cc1nc2nc(C)c(CCC(=O)Nc3ccc4c(c3)OCO4)c(C)n2n1	0.04	0.03
COc1cccc(CNC(=O)CCn2ccc3cc(S(=O)(=O)N4CCCC4)ccc32)c1	1.03	0.01
O=C(Nc1ccc(Cl)cc1)c1cc(-c2cccs2)on1	0.08	0.3
CCOC(=O)c1ccc(NC(=O)CSC2=NC(=O)C(CC)C(=O)N2)cc1 (configuration not stated)	0.04	0.23
Cc1ccc(S(=O)(=O)c2nc(NN(C)C)sc2Cl)cc1	0.08	0.19
Cc1cc(NC(=O)c2cc(-c3cccc(Cl)c3)on2)no1	0.43	2.68
Cc1nn(C)c(N)c1[N+](=O)[O-]	1.16	1.08
CS(=O)(=O)c1ccc(C(=O)Nc2cccc(-c3nc4ccccc4[nH]3)c2)cc1	0.78	0.18
CCOc1cc(NC(=O)CC(C)C)c(OCC)cc1NC(=O)CCn1nnc2ccccc21	0.03	0.9
CC(C)C(=O)N1CCN(c2ccc(NC(=O)COc3ccccc3[N+](=O)[O-])cc2)CC1	1.09	-0.4
CCOc1ccccc1N1CCN(C(=S)Nc2ccc(S(=O)(=O)Nc3ncccn3)cc2)CC1	0.73	-0.26
O=C(NCCCn1ccnc1)/C(=C/c1ccccc1)NC(=O)c1ccccc1	0.53	0.32
Cc1ncc([N+](=O)[O-])n1CCOC(=O)NC(NCc1ccccc1)C(Cl)(Cl)Cl (configuration not stated)	1.3	0.14
COC(=O)c1cc(N2CCNCC2)nc2ccccc12	0.49	-0.65
COc1ccc(C(=O)Nc2ccccc2C(=O)N(Cc2ccco2)C(C(N)=O)C(C)C)cc1 (configuration not stated)	0.3	0.04
COc1cccc(NC(=O)Nc2nc(-c3ccc(OC)c(OC)c3)cs2)c1	0.89	-1.19
CCCCC(NC(C)=O)c1nc2ccccc2n1CCC (configuration not stated)	0.39	0.21
COc1ccc(OC)c(NC(=O)Nc2cccc3ccccc23)c1	0.78	1.45
CCC1CN(C(=O)N2CCC(C(=O)NCc3cccc(OC)c3OC)CC2)c2cc(C)ccc2O1 (configuration not stated)	2.3	-1.79
CC(=O)c1cccc(NC(=O)c2cc(C(C)C)on2)c1	1.61	-0.08
Cn1c(SCC(=O)Nc2ccc(N3CCOCC3)cc2)nnc1-c1ccccc1F	0.03	0.01
O=S(=O)(Cc1ccc(Cl)cc1)N1CCCC1	1.73	0.06
O=S(=O)(Nc1cccc(-n2cnnn2)c1)c1cnc(Cl)c(Cl)c1	0.91	-0.39
COc1ccc(N=c2oc3ccc(OC)cc3cc2-c2nc3ccccc3[nH]2)cc1	0.31	1.13
Cc1cc(C)nc(NC(=O)c2c(-c3c(Cl)cccc3Cl)noc2C)n1	1.72	0.59
CCOC(=O)CSc1nnc(N)s1	1.63	0.4
Cc1nnc(SCC(=O)Nc2ccc3c(c2)OCO3)o1	0.22	3.04
CC(=O)Nc1ccc(NC(=O)COC(=O)c2cnccn2)cc1	0.01	-0.89

Random excerpt: 4 entries already listed
SMILES	KCNQ2 pot	KCNQ2 pot baseline
Cn1c(SCC(=O)Nc2ccc(N3CCOCC3)cc2)nnc1-c1ccccc1F	0.03	0.01
COc1ccc(C(=O)Nc2ccccc2C(=O)N(Cc2ccco2)C(C(N)=O)C(C)C)cc1 (configuration not stated)	0.3	0.04
Cc1nnc(SCC(=O)Nc2ccc3c(c2)OCO3)o1	0.22	3.04
CCC1CN(C(=O)N2CCC(C(=O)NCc3cccc(OC)c3OC)CC2)c2cc(C)ccc2O1 (configuration not stated)	2.3	-1.79

Additional entries follow.
SMILES	KCNQ2 pot	KCNQ2 pot baseline
CCc1noc(C)c1C(=O)N1CCCC(N2CCN(c3ccc(F)cc3)CC2)C1 (configuration not stated)	1.01	-1.45
CSCc1ccc(C(=O)Nc2ccc(C(N)=O)cc2)cc1	0.28	0.05
Cc1nc(NCc2ccco2)c2oc3ccccc3c2n1	1.8	-1.23
COc1ccc(-c2ccc(F)cc2)cc1[C@H]1[C@H]2C=CC[C@@H](C)[C@@H]2C(=O)N1Cc1ccccc1	1.36	0.97
CC(C)Nc1nnc(SCC(=O)/C=C2\N(C)c3ccccc3C2(C)C)s1	0.52	-0.3
Cc1cc(NC(=O)CSCC(=O)N(C)Cc2cccc(Cl)c2)no1	2.39	-3.4
CSc1nc2nccc(-c3ccc(Cl)cc3)n2n1	1.57	-1.05
O=C(N=Nc1c(O)[nH]c2ccccc12)c1ccco1	3.18	-1.23
Cc1ccccc1NC(=O)C1CCN(S(=O)(=O)c2cccc3nonc23)CC1	0.52	0.2
Cc1ccc(C(=O)N/C(=C\c2cccs2)C(=O)NCC2CCCO2)cc1C (configuration not stated)	0.06	-0.01
CCOC(=O)c1sc(NC(=O)/C=C/c2c(F)cccc2Cl)nc1C	0.55	-0.31
COc1cccc(C(=O)NNc2c3ccccc3nc3ccccc23)c1	0.3	2.2
COC(=O)C1=C(CCc2ccccc2)NC(=O)NC1c1ccc(Br)cc1 (configuration not stated)	0.8	-0.58
Cn1cc(-c2nnc(-c3ccccc3)o2)c2ccccc21	0.48	0.27
Cc1ccc(CNC(=O)Cn2cccc2C(=O)c2ccccc2)cc1	0.45	-0.33
COc1ccccc1NS(=O)(=O)c1cccc(C(=O)NN)c1	0.41	1.34
CCOC(=O)NC(=O)/C(C#N)=N/Nc1ccc(F)cc1	1.45	0.06
Cc1cc(C(=O)CSc2nnc3ccccn23)c(C)n1-c1ccccc1	1.3	0.67
Clc1ccc2c(c1)C(N1CCNCC1)=Nc1ccccc1O2	0.32	-0.61
O=C(COC(=O)c1ccc(S(=O)(=O)N2CCCC2)cc1)NCc1ccc(Cl)cc1	0.32	-0.6
Cc1ccc(-c2ccc(=O)n(Cc3c(F)cccc3Cl)n2)cc1	0.53	-0.65
Nc1cc(-c2ccc(Cl)cc2)nn1-c1ccccc1	1	-0.89
C/C(=N\NC(=O)c1ccn(C)n1)c1ccc(NC(=O)c2cccc(F)c2)cc1	0.8	0
COc1ccc(-n2c(SCC(=O)Nc3cccc(C(=O)O)c3)nnc2-c2ccco2)cc1	1.16	1.1
CCNC(=O)COc1ncnc2scc(-c3ccc(F)cc3)c12	0.88	-0.76
CC1CCN(C(=O)c2ccc(N3C(=O)c4ccccc4C3=O)cc2)CC1	0.16	-0.11
CCOc1cc(CNc2ccccc2)cc(Br)c1OCc1ccccc1F	0.01	2
CCOC(=O)C1C(=O)CC(C)(O)C(C(=O)OCC)C1c1cccc(OC)c1 (configuration not stated)	1.1	-1.72
O=[N+]([O-])c1cc(Cl)ccc1Sc1cccc2cccnc12	0.49	0.49
CCn1c(SCc2ccccc2F)nnc1-c1ccncc1	1.48	0.27
CCC[C@H](CN[C@@H](CNC)[C@H](C)O)NCCc1ccc(OC)cc1	0.47	1.31
COc1cc(/C=C/C(=O)OCC(=O)NCc2cccs2)ccc1OC(F)F	0.37	-0.57
COc1ccc(NC(=O)CSc2ccc(-c3ccccn3)nn2)cc1OC	0.02	0.14
COCCNC(=S)NC(=O)CC12CC3CC(CC(C3)C1)C2	0.72	0.49
O=C(CSc1nc2c(c(=O)n1-c1ccc(Cl)cc1)SCC2)NCc1ccco1	0.07	-1.05
COc1cc(C(=O)OCC(=O)Nc2ccc(F)cc2F)cc(OC)c1OC	1.04	0.04
Cc1ccc(N(CC(=O)Nc2c(C)cccc2C)S(C)(=O)=O)cc1	0.23	1.26
O=C(NC(N1CCOCC1)C(Cl)(Cl)Cl)c1ccco1 (configuration not stated)	0.55	0.34
COc1ccc(N(C(C)=O)c2nc3ccccc3[nH]2)cc1	0.96	0
Cc1[nH]c2ccccc2c1-c1csc(NC(=O)CSCCO)n1	1.34	0.3
O=C(COCC(=O)Nc1cccc(C(F)(F)F)c1)Nc1cccc(C(F)(F)F)c1	0.07	-0.02
O=C(NC1=NCCS1)C1CC(=O)N(c2ccccc2)C1 (configuration not stated)	0.16	1.67
O=C(NCCN1CCN(C(=O)NC2CCCCC2)CC1)NC1CCCCC1	0.63	-2.96
